PINK1 expr mod: modulators of PINK1 expression; PINK1 immunofluorescence, high-content cytometry, 24 h; AID 624263; Potency, µM (series often up to 76.6 µM), for inactives: at the highest dose activation (PINK1 increase), usual class: activators; 0.2% of 410,000 active; active = well fitted activation curve with a large enough effect; inconclusive = small, poorly fitted or top-dose-only effect; inactive = flat fitted curve, though single readings scatter; cell line not stated here;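 further: potency means the concentration at half of the fitted maximal effect; % of control where 0% means no effect; nearly all actives have a fitted effect of over 65% in size; a mitochondrial uncoupler was the plate control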
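A stable cell line was treated with compounds at 5 concentrations for 24 hours, with CCCP as control. PINK1 levels and mitochondrial localization were measured by immunofluorescence with mitochondrial, cell and nuclear markers after fixation, read by laser-scanning cytometry.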
TRPML1 agonist: activates the human TRPML1 channel. activation, % (no concentration beside the values). Q9GZU1. AID 624414. 0.12% of 410,000 active. TRPML1-expressing cells, Ca2+ dye fluorescence, FDSS; host cell line not named in the record; reference of the full effect not given here; in the data active = activation above about 50%; inconclusive = about 30% to 50%; inactive = below about 30%; further: 0% is about no effect; the text of the record puts the active cut at 80%
Target sequence (Q9GZU1 whole entry, looked up): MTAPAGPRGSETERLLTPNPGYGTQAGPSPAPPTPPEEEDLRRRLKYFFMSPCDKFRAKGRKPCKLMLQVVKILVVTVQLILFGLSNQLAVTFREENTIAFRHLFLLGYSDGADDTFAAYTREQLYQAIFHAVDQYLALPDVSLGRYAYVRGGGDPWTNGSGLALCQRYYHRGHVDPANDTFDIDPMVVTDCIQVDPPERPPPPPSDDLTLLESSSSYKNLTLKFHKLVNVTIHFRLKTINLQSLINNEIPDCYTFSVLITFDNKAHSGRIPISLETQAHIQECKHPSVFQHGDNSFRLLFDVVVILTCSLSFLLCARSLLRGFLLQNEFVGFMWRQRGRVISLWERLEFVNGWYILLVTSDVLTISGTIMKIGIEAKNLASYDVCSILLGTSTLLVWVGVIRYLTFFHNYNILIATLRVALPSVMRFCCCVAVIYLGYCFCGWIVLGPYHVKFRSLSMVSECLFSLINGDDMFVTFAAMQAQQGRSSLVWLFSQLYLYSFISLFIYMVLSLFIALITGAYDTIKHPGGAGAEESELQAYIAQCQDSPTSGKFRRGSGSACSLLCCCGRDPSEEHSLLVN
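TRPML1-DL cells, Tet-induced overnight (~16 h, 37 degrees C), loaded 45-90 min at room temperature with Ca8 no-wash calcium dye plus quencher. FDSS fluorescence: 10 s baseline, compound pin-transfer, 110 s agonist read, then EC80 54-4 (4uM final) and 110 s antagonist read.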
D2 agonist: activates the human D2 dopamine receptor. DiscoveRx PathHunter D2 beta-arrestin, luminescence, 90 min; 100% = 57 uM dopamine signal. activation, % (concentration not given with the values). 0.084% of 360,000 active. AID 624465; in the data active = activation above about 40%; inconclusive = about 15% to 40%; inactive = below about 15%; further: compound concentration not given in the record; the text of the record calls up to 30% inactive
Target sequence (P14416 whole entry, looked up): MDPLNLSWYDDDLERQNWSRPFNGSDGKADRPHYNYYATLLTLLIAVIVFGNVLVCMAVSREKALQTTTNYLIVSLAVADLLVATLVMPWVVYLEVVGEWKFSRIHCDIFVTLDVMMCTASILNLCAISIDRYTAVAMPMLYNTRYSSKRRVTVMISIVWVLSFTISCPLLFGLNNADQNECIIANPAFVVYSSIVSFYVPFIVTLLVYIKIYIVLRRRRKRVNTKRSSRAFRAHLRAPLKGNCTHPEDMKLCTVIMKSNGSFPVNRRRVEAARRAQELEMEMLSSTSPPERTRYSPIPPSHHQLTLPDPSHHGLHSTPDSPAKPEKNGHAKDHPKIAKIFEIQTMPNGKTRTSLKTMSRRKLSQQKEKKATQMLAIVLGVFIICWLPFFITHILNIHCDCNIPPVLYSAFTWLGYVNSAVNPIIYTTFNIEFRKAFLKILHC
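DiscoveRx PathHunter D2 beta-arrestin cells (2,100/well) attached overnight, then compound-stimulated 90 min at 37 C in HBSS/10 mM HEPES/0.1% Tween-20 buffer; beta-galactosidase complementation read by luminescence after 1 h at ambient temperature. Dopamine 57 uM final (EC100) as control.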
D2 PAM: human D2 receptor positive allosteric modulation | potentiation, % (test concentration not listed) | AID 624464 | 0.23% of 360,000 active | DiscoveRx D2 beta-arrestin cells, luminescence, 90 min; 100% = 57 uM dopamine signal; active = potentiation of 50% or more; inconclusive = 30% to 50%; inactive = 30% or less;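 further: compound concentration not given in the record; tested on top of an EC20 dose of dopamine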
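D2 cells co-treated with compound plus 50 nM dopamine (EC20) for 90 min at 37 deg C to detect potentiation. Beta-arrestin recruitment was read as enzyme-fragment luminescence after 1 h at ambient temperature. Full response was set by 57 uM dopamine.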
TRPML1 inh: human mucolipin-1 channel inhibition | Q9GZU1 | TRPML1-inducible cells, Ca2+ dye fluorescence, FDSS; hits give low values; inhibition of EC80 agonist-evoked calcium signal | 0.02% of 390,000 active | activity change, negative = inhibition, % (concentration not given with the values); in the data active means activity change below about -50%; inconclusive means about -30% to -50%; inactive means above about -30%;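 further: stimulus is agonist 54-4 at its EC80 concentration; on the % scale 0 is the no-effect control and ±100 the full control effect; compound concentration not given in the record; the text of the record puts the active cut at -80%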
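Tet-induced TRPML1-DL cells loaded with Ca8 no-wash calcium dye were read kinetically on FDSS. Compound addition was followed by EC80 agonist 54-4 (4 uM final); inhibition was read over 110 s.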
Six1-Eya2 inh: Six1/Eya2 interaction inhibition; activity change, % (test concentration not listed); 0.56% of 360,000 active; Q15475+O00167; AlphaScreen GST-Six1/His-Eya2 binding, biochemical; hits give low values; control for the full effect not named in the record; in the data active = activity change below about -65%; inconclusive = about -30% to -65%; inactive = above about -30%; further: on the % scale 0 is the no-effect control and ±100 the full control effect; compound concentration not given in the record
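Homogeneous AlphaScreen proximity assay pairing GST-Six1 with His-tagged Eya2 (added as 5X mix: 250 nM and 500 nM) in 50 mM Tris pH 8.0, 300 mM NaCl, 1 mM TCEP. Glutathione donor and nickel acceptor beads; 1 h, 37 °C, dark.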
* hit, by the source's call; ? = inconclusive; nt = no result given; [ ] = another dose, or the depositor's remark.

SMILES	PINK1 expr mod	TRPML1 agonist	D2 agonist	D2 PAM	TRPML1 inh	Six1-Eya2 inh
Cc1ccc(CNC(=O)/C=C/c2c(Cl)cccc2Cl)cc1	6.8%	-0.9	2.7	-7	-1	1
COCC(C)n1c(SCC(=O)NC2CCCCC2C)nc2ccccc2c1=O (stereo unspecified)	-0.3%	1.6	-0.8	-4	3	-2
CN(C)c1ncnc2c1ncn2[C@H]1CN(Cc2ccc3c(c2)OCO3)C[C@@H](CO)O1	0.3%	-0.5	-6.7	-1	nt	8
O=C(Cn1nc(C(=O)O)c2ccccc2c1=O)Nc1ccc(F)cc1	4.5%	1.1	2.9	-2	-5	-3
O=C(c1ccco1)N1CCN(C(=O)C2c3ccccc3Oc3ccccc32)CC1	nt	-0.2	-1.1	-20	13	-2
CC(/C=N/NC(=O)c1c(Br)cnn1C)=C\c1ccccc1	0.7%	1.4	-4.2	-25	-10	3
Cc1cc(-c2nnc(-c3ccccc3)c(-c3ccccc3)n2)c(C)o1	3.0%	-0.1	-1.3	-7	-1	-12
CC(C)C(N)c1csc(Nc2ccc(C(=O)NCCCO)cn2)n1 (stereo unspecified)	0.1%	-0.1	-3.7	-7	nt	?
Cc1nc(N2CCN(Cc3ccccc3)CC2)nc2c1C(=O)CC(C)C2 (stereo unspecified)	2.7%	1.2	-1.7	5	-9	9
Cc1cc2c([nH]c3ccccc32)c2c1OC(C)(C)C=C2	9.3%	nt	15	-14	nt	-2
O=C(CCC(=O)Nc1ccc(Br)cc1)N/N=C/c1cc([N+](=O)[O-])ccc1O	5.0%	0.0	0.2	-1	-6	-3
COc1cccc(N=Nc2c(N)[nH]n3c(=O)c4c(nc23)CCCC4)c1	0.0%	0.5	-6.7	-47	-1	-71*
CN(C)C(CNC(=O)C1CCN(C(=O)/C=C/c2ccccc2)CC1)c1ccccc1 (stereo unspecified)	-0.7%	0.8	-1.3	3	-6	18
Cc1ccc(N=Nc2cc(C)ccc2O)c(C)c1	3.5%	2.9	4.2	-5	4	?
O=C(/C=C/c1ccco1)NC(=S)NNC(=O)c1ccco1	-5.5%[38.3 µM]	0.0	-2.1	-9	3	-9
CCN(CC)S(=O)(=O)c1cccc(C(=O)OCC(=O)N2CC(=O)Nc3ccccc32)c1	-2.7%	0.8	-2.3	-10	27	-1
CCc1c(C(C)S(=O)(=O)c2ccc(C)cc2)[nH]c(=O)n1-c1ccc(OC(F)(F)F)cc1 (stereo unspecified)	-0.1%	-1.0	-1.5	-7	1	-13
O=C(CSc1ccc2nnc(-c3ccc(F)cc3)n2n1)N1CCCc2ccccc21	-1.6%	1.6	-1.7	-18	2	-23
N/C(=N\OC(=O)c1cccc([N+](=O)[O-])c1)c1cccnc1	-0.4%	-0.6	3.6	?	5	-11
CCOc1cc(/C=N/NC(=O)NN(C)c2ncc(C(F)(F)F)cc2Cl)ccc1O	2.3%	3.4	1.1	0	35	-5
O=[N+]([O-])c1ccc(N2CCN(c3cccc(Cl)c3)CC2)nc1	6.3%	nt	-3.2	-6	nt	1
COc1ccc(CC(=O)NCC(c2ccc(Cl)cc2)N2CCOCC2)cc1 (stereo unspecified)	-0.8%	-0.6	nt	nt	-4	nt
O=C(NCCCn1ccnc1)C1CCN(S(=O)(=O)c2cc([N+](=O)[O-])ccc2Cl)CC1	-1.8%	0.2	10	0	-4	1
COc1ccc(N2CCN(C(=O)c3cnc(N4CCOCC4)c4ccccc34)CC2)cc1	0.5%	0.7	nt	nt	6	nt
CS(=O)(=O)N1CCN(c2ccc(C(=O)NC34CC5CC(CC(C5)C3)C4)cc2[N+](=O)[O-])CC1	3.7%	1.0	0.4	-2	37	3
COCc1ccc(C(=O)N(C)C2CCCN(Cc3ccccc3F)C2)o1 (stereo unspecified)	-1.0%	-0.8	-0.8	-11	-8	-4
NC(Cc1ccc(F)cc1)c1csc(Nc2nncc3ccccc23)n1 (stereo unspecified)	-1.2%	0.9	4.7	0	nt	5
O=C(C(=O)N1CCN(c2cccc(Cl)c2)CC1)N1CCCCC1	-0.8%	-0.5	-3.2	1	-7	1
Cc1ccc(-c2ccc(CN3C(C(C)C)C(=O)N(Cc4cn(CCC5OCCO5)nn4)CCS3(=O)=O)cc2)c(C)c1 (stereo unspecified)	8.1%	0.5	5.6	3	-5	-3
CSc1ccccc1NC(=O)C1=CC(c2cccs2)=NS(=O)(=O)N1C	0.4%	0.6	-6.6	-7	1	-1
Cc1cc(C)c2nc(SCC(=O)N(C)C3CCS(=O)(=O)C3)cc(C)c2c1 (stereo unspecified)	3.6%	3.7	-4.4	0	13	5
CCOC(=O)C1CCN(C(=O)Nc2cccc(Cl)c2)CC1	2.3%	-0.3	-0.7	-5	-19	-7
O=C1C2CCCCC2C(=O)N1c1ccc(NC2CCN(Cc3ccccc3)CC2)c([N+](=O)[O-])c1 (stereo unspecified)	1.2%	-0.4	-3.1	-21	-6	-17
CCCN1CCN(C2CCCCC2NS(=O)(=O)c2ccc(Cl)cc2)CC1 (stereo unspecified)	0.3%	0.5	-0.8	-31	18	2
O=c1oc2ccccc2c(N2CCCCC2)c1[N+](=O)[O-]	2.2%	0.3	-2.5	21	4	-2
CCS(=O)(=O)N1CCN(c2ccc(C(=O)NC34CC5CC(CC(C5)C3)C4)cc2[N+](=O)[O-])CC1	9.6%	-0.2	-1.1	-5	55	3
COc1ccccc1C1(CC(=O)N2CCCCC2)CCOC(C(C)C)C1 (stereo unspecified)	-7.9%[38.3 µM]	-0.7	2.0	-3	-5	3
Cc1cc(Oc2ccccc2)nc(NCc2ccccc2)n1	12%	-0.9	-5.5	0	-17	15
CCOC(=O)c1ccc(NC(=O)CN(c2ccc(C)cc2)S(=O)(=O)c2c(C)n[nH]c2C)cc1	3.1%	7.7	0.7	21	-6	-10
O=C(Nc1nc(-c2ccc(S(=O)(=O)N3CCCCCC3)cc2)cs1)c1cccs1	6.7%	-0.8	2.0	22	5	?

The list goes on; it opens with the 7 that closed the last part.
SMILES	PINK1 expr mod	TRPML1 agonist	D2 agonist	D2 PAM	TRPML1 inh	Six1-Eya2 inh
CCCN1CCN(C2CCCCC2NS(=O)(=O)c2ccc(Cl)cc2)CC1 (stereo unspecified)	0.3%	0.5	-0.8	-31	18	2
O=c1oc2ccccc2c(N2CCCCC2)c1[N+](=O)[O-]	2.2%	0.3	-2.5	21	4	-2
CCS(=O)(=O)N1CCN(c2ccc(C(=O)NC34CC5CC(CC(C5)C3)C4)cc2[N+](=O)[O-])CC1	9.6%	-0.2	-1.1	-5	55	3
COc1ccccc1C1(CC(=O)N2CCCCC2)CCOC(C(C)C)C1 (stereo unspecified)	-7.9%[38.3 µM]	-0.7	2.0	-3	-5	3
Cc1cc(Oc2ccccc2)nc(NCc2ccccc2)n1	12%	-0.9	-5.5	0	-17	15
CCOC(=O)c1ccc(NC(=O)CN(c2ccc(C)cc2)S(=O)(=O)c2c(C)n[nH]c2C)cc1	3.1%	7.7	0.7	21	-6	-10
O=C(Nc1nc(-c2ccc(S(=O)(=O)N3CCCCCC3)cc2)cs1)c1cccs1	6.7%	-0.8	2.0	22	5	?
CCOc1ccc(CCNC(=O)Cn2c(-c3cccs3)cc3cc(F)ccc32)cc1OCC	17%	0.2	nt	nt	52	nt
CNc1cncc(-c2ccoc2)n1	-0.9%	-0.8	-14	-4	nt	-7
COc1ccc(OC)c(S(=O)(=O)NC(=O)C2(C)CCN2C(=O)CC2CCCC2)c1 (stereo unspecified)	-0.8%	-0.8	-2.4	-11	48	14
CCCn1c(CCc2ccccc2)nnc1SCC(=O)N1CCCC1	0.1%	0.2	-1.6	-12	-5	2
COc1cc2ccc(C(=O)O)cc2cc1OC	-0.1%	-0.5	-4.0	-13	-9	5
Cn1nc(-c2ccccc2)c(-c2ccccc2)c(C(=O)Nc2ccc(S(N)(=O)=O)cc2)c1=O	-1.4%	1.8	nt	nt	6	nt
CC(C)(C)C(=O)Nc1nnc2n1CCS2	-4.8%	0.7	nt	nt	3	nt
Nc1ccc(C(=O)OCC(=O)N2c3ccccc3Sc3ccccc32)cc1[N+](=O)[O-]	0.4%	-0.1	-2.1	-7	27	-25
COCc1cc(CN2CCCC2)c(O)c2ncccc12	-1.2%[38.3 µM]	-0.7	4.8	-4	-7	-91*
COc1ccc(NC(=O)CSc2nc(-c3ccc(OC)cc3)[nH]c2-c2ccc(F)cc2)cc1	3.8%	-0.1	nt	nt	0	nt
C[C@@H]1CN([C@@H](C)CO)C(=O)c2cc(Br)cnc2O[C@H]1CN(C)S(=O)(=O)c1cccs1	0.0%	-0.1	-6.1	5	41	6
COc1ccc(OC)c(Cc2nnc(CCC(=O)N3CCCCCC3)o2)c1	-0.4%	-0.1	6.9	-2	-14	2
CCN(CCO)C1CC(=O)N(c2ccccc2C)C1=O (stereo unspecified)	3.6%	-0.5	-3.0	-11	6	-2
O=c1c(/C=N/O)coc2ccc(Cl)cc12	-2.0%	0.0	1.4	-3	21	8
CC(=O)N1CCN(CC(=O)Nc2cccc(S(=O)(=O)N3CCCCC3)c2)CC1	2.1%	0.7	0.3	-3	43	-8
Cc1cc(C)c(NC(=O)CC(C)(C)C)c(Cl)c1	-1.1%	1.5	-0.9	-1	7	17
CNC(=O)/C(C#N)=C/c1c(N2CCCCCC2)nc2c(C)cccn2c1=O	-3.5%	4.0	4.4	-7	15	-13
O=C(CP(=O)(c1ccccc1)c1ccccc1)Nc1nc2ccc(Cl)cc2s1	1.6%	18	-6.3	-16	-5	-3
CC1CN(C(=O)COC(=O)c2c(Cl)cccc2Cl)CC(C)O1 (stereo unspecified)	0.6%	0.1	0.2	-3	21	6
COCCN(C(=O)Nc1ccc(OC)cc1)c1nc2ccccc2s1	1.2%	0.9	5.9	0	-6	2
COc1ccc(C(=O)/C=C/c2cc(OC)c(O)c(OC)c2)c(F)c1	-1.7%	12	-3.8	-27	-10	3
CCOC(=O)C1=CCN(S(=O)(=O)c2ccccc2Br)C1c1ccc(Br)cc1 (stereo unspecified)	2.3%	21	-5.4	1	-5	-3
COC(=O)c1ccc(NC(=O)CCc2c(C)nc3c(c(C)nn3-c3ccc(C)cc3)c2C)cc1	-0.3%	1.5	nt	nt	-17	nt
COc1ccccc1N1CCN(C(=O)c2cccc(C(=O)N3CCN(c4ccccc4OC)CC3)c2)CC1	-0.6%	-0.7	3.6	7	-11	-3
C[C@H](NC(=O)c1nc[nH]c1C(=O)NC1CCN(C(=O)OC(C)(C)C)CC1)C(=O)OC(C)(C)C	-0.9%	1.3	0.1	10	17	8
CCOC(=O)COc1c(/C=N\O)cc(Cl)cc1OC	2.0%	0.0	-1.2	-4	-14	7

Copied from the list.
Reading of Cc1cc(Oc2ccccc2)nc(NCc2ccccc2)n1 under TRPML1 agonist: -0.9
Reading of CCCn1c(CCc2ccccc2)nnc1SCC(=O)N1CCCC1 under D2 PAM: -12

No enrichment for hits, and some 1% of all compounds hit somewhere here.
